# NPYLR7 ag: agonists of mosquito NPYLR7 receptor, primary screen, cell-based, Aedes aegypti, calcium fluorescence, mosquito biting behavior | Aedes aegypti neuropeptide Y-like receptor 7 (NPYLR7) | 270,000 compounds, 0.15% hits | activation, % at 10 µM | HEK293T NPYLR7/Galpha15, GCaMP6s calcium fluorescence; in the data active = activation above about 40%;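 also: 0% = vehicle and 100% = reference agonist at the receptor; some compounds past the cut are filed as inactive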
# NPYLR7 ag max-min: also measured in NPYLR7 ag; calls as there; activation, %; measured here: Max-Min RFU normalised activation; some inactives read as strong as hits;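 span of the calcium signal over five minutes; 0% = vehicle and 100% = native peptide agonist; compound fluorescence can raise it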
# * marks the source's active call; other numbers are inactive results; & = joins results of further samples.
Molecule | NPYLR7 ag | NPYLR7 ag max-min
CCOc1ccc(C(O)=C2C(=O)C(=O)N(CCN(C)C)C2c2ccc(F)cc2)cc1C (stereo not drawn) | -1 | -7
COc1cc(C)ccc1Oc1cc(N2CCN(C(=O)CCc3ccccc3)C(C)C2)ncn1 (stereo not drawn) | 8 | 5
N#Cc1ccc(CSc2nnc(-c3cc(-c4ccccc4)nc4ccccc34)n2CC2CCCO2)cc1 (stereo not drawn) | -4 | 2
CS(=O)(=O)N(c1ccc(N)cc1Br)S(C)(=O)=O | 15 | 5
CC(C)c1ccccc1NC(=O)COC(=O)CSc1ccc(C(F)(F)F)cc1[N+](=O)[O-] | -2 | -7
NCCSc1c(-c2ccc(Br)cc2)[nH]c2ccccc12 | -7 | -10
Cc1ccc(-n2ncc3c(=O)n(NC(=O)c4ccc(C(F)(F)F)cc4)cnc32)cc1C | 2 | 0
COc1cc(OC)c(OC)cc1/C=C1/SC(=Nc2ccccc2)NC1=O | -1 | -5
O=C1NC(=NC2CCCCC2)S/C1=C/c1ccc(Cl)s1 | 6 | 4
N#Cc1ccccc1NC(=O)OCC(F)(F)F | -4 | -5
c1ccc(C2c3[nH]c4ccccc4c3CCN2Cc2ccc3c(c2)OCCO3)nc1 (stereo not drawn) | 8 | 0
COc1ccc(-c2cc(NC(=O)CCC3CCCC3)n(-c3ccc(C)cc3)n2)cc1 | 21 | 8
Cn1cnc2c1c(=O)n(CC(=O)N1CCCC1C(=O)Nc1ccccc1)c(=O)n2C (stereo not drawn) | 9 | 7
COc1cc(CC(=O)NCc2ccc(N3CCOC(C)C3)nc2)cc(OC)c1OC (stereo not drawn) | 4 | -3
Cc1ccc(C)c(S(=O)(=O)Nc2ccccc2C(=O)NC2CCCCC2)c1 | 2 | 16
COc1ccc(NC(=O)Cn2cc(-c3nnc(C)o3)c3ccccc32)cc1 | 5 | 11
CCc1nc2ccc(C(=O)N(C)Cc3ccccc3)cn2c1N(C)Cc1ccc(N(C)C)cc1 | -12 | -14
O=C(Cc1ccccc1)N(CC1CCCO1)c1nc2ccccc2s1 (stereo not drawn) | 0 | 0
CCCCCCCCCCC[C@@H](C[C@@H]1OC(=O)[C@H]1CCCCCC)OC(=O)[C@H](CC(C)C)NC=O | -10 | -16
CCOC(=O)c1nn(-c2ccccc2)c(=O)cc1OCc1c(F)cccc1Cl | 12 | 5
O=C(NCC1Cc2cc(F)ccc2O1)c1cc(F)cc(C(F)(F)F)c1 (stereo not drawn) | 1 | -2
CC(C)(C)NC(=O)Cn1c(=O)n(-c2ccc(F)cc2)c(=O)c2oc3ccccc3c21 | -5 | -11
O=C(CCn1c(=O)oc2ccc(Cl)cc21)N1CCN(c2ccccc2Cl)CC1 | 6 | 9
CCn1ccnc1CN(C)CC1(O)CCCN(CC2CCCCC2)C1=O (stereo not drawn) | -4 | -10
COCC(=O)Nc1ccc(N2CCN(C(=O)c3ccc(N(C)C)cc3)CC2)nc1 | 3 | 0
O=C(Nc1ccc(N2CCC(NC3Cc4ccccc4C3)CC2)cc1)C1CCCC1 | -1 | -7
CCC(C)N(CC)C(=O)c1cccc(N2CCS(=O)(=O)CC2)c1 (stereo not drawn) | -8 | -12
CCCN1C(=O)C(c2c(C(C)C)[nH]n(-c3ccccc3)c2=O)=C([n+]2ccc(C)c(C)c2)C1=O | -1 | 1
CCc1nccn1CCC(=O)NC1CCCc2c1cnn2-c1ccc(F)cc1F (stereo not drawn) | 17&-3 | 8&-3
C=CC[C@H]1CC(C)=C[C@H](CC=C)N1C(=O)CS(C)(=O)=O | 11 | 3
O=C(Nc1c[nH]c2ccccc12)N1CCC(O)CC1 | -3 | -3
CCSCCN(C(=O)CC1CCOCC1)C1CCCCC1 | 1 | 1
Cc1nc2nc3ccn(CCO)c(=O)c3c(-c3ccccc3)n2n1 | -17 | -22
O=C(C1CCC1)N(Cc1cccc(C(F)(F)F)c1)CC1CC(c2ccc(Cl)c(Cl)c2)=NO1 (stereo not drawn) | 2 | 18
CNCC(=O)NC1CCCN(C(=O)c2cccs2)C1 (stereo not drawn) | 0 | 9
Clc1ccc(-c2nc(-c3ccncc3)no2)cc1Cl | 7 | 4
CCc1oc(C(=O)N(C)Cc2snnc2C)cc1CN1CCCC1 | 0 | 3
CCc1ccc(NC(=O)c2coc3ccccc23)cc1S(N)(=O)=O | -4 | -5
CCOc1ccc(C(=O)N2CCN(c3ccccc3OC)CC2)cc1OCC | -16 | -22
COC(=O)c1cc2n(n1)CCN(C(=O)CCN1CCCCO1)C2 | 3 | 0
Cc1c(C(=O)NC(C)CCc2ccccc2)cc(-c2ccccc2)n1-c1ccccc1F (stereo not drawn) | -11 | -1
CCn1cc(C(=O)N2CCCSC2=Nc2ccccc2)c(=O)c2ccc(C)nc21 | 1 | 1
Cc1c(C(=O)NC2CC2)cnn1-c1ccccc1 | 31 | 37
CCOC(=O)Cn1c(CN(C)Cc2ccccc2)nc2c1c(=O)n(C)c(=O)n2C | 5 | 1
COc1ccc(-n2c(=O)c3c4c(sc3n3c(SCC(N)=O)nnc23)CCCC4)cc1 | -3 | -4

# Overlap with the part before: 6 compounds, then new ones.
Molecule | NPYLR7 ag | NPYLR7 ag max-min
COC(=O)c1cc2n(n1)CCN(C(=O)CCN1CCCCO1)C2 | 3 | 0
Cc1c(C(=O)NC(C)CCc2ccccc2)cc(-c2ccccc2)n1-c1ccccc1F (stereo not drawn) | -11 | -1
CCn1cc(C(=O)N2CCCSC2=Nc2ccccc2)c(=O)c2ccc(C)nc21 | 1 | 1
Cc1c(C(=O)NC2CC2)cnn1-c1ccccc1 | 31 | 37
CCOC(=O)Cn1c(CN(C)Cc2ccccc2)nc2c1c(=O)n(C)c(=O)n2C | 5 | 1
COc1ccc(-n2c(=O)c3c4c(sc3n3c(SCC(N)=O)nnc23)CCCC4)cc1 | -3 | -4
CCN(CC)C(=O)c1cccc(C)c1 | -5 | -12
CCNC(=O)N(Cc1cc(N)ccc1N(C)C)C1CCCCC1 | -3 | -5
N#CCSc1n[nH]c(-c2ccccc2Br)n1 | 9 | 5
Cc1cccn2c(=O)c3cc(C(=O)NC4CC(C)CC(C)(C)C4)sc3nc12 (stereo not drawn) | 6&-6 | 0&-10
FC(F)(F)c1nc(-n2nnc3ccccc32)c2ccccc2n1 | 2 | 11
COc1ccc(OC)c(C2c3[nH]c4ccccc4c3CCN2CC(=O)Nc2nnc(C)s2)c1 (stereo not drawn) | 6 | 8
CC(C)COCC(O)CN(Cc1ccccc1)Cc1ccco1 (stereo not drawn) | 16 | 11
CCN1CCN(c2c(CN(CCC(C)C)S(=O)(=O)c3cc(Cl)ccc3Cl)c(C)nn2-c2ccccc2)CC1 | 0 | 8
Cc1cccc(CC(C(=O)Nc2cccc3ccccc23)c2nn[nH]n2)c1 (stereo not drawn) | 0 | -5
CC(C)c1ccccc1NC(=O)C1CC=CCC1C(=O)N1CCN(c2ccccn2)CC1 (stereo not drawn) | -2 | -12
CCCc1n[nH]c(=O)n1Cc1ccc(OC)cc1 | 12 | 7
Cc1ccsc1[C@@H]1CCN(C(=O)C2=NNC(=O)CC2)C[C@H]1O | 22 | 10
CCn1cc(C(=O)N2CCN(C(=O)Cc3cccs3)CC2)c2nn(-c3ccccc3)c(=O)c-2c1 | 4 | 3
O=C(c1cc2n(n1)CCN(Cc1ccc(C(F)(F)F)cc1)C2=O)N1CCc2ccccc2C1 | 10 | 3
NC(=O)c1ccccc1NC(=O)c1c(O)c2ccccc2[nH]c1=O | -4 | -7
O=C(CSc1nnc(-c2cccs2)n1C1CC1)c1cccs1 | 1 | 1
COc1cccc(CN2CCn3nc(C(=O)N4CCN(c5cccc(C(F)(F)F)c5)CC4)cc3C2=O)c1 | -4 | -1
CCOC(=O)CSc1nnc(-c2ccc(Br)cc2)n1-c1ccccc1 | 0 | -1
O=C(c1cc(F)ccc1C(F)(F)F)N1CC(=O)N2CCc3c(F)cccc3C2C1 (stereo not drawn) | 17 | 29
Cc1nc(N2CCCC2)ncc1-c1cc(=O)[nH]c(NCc2ccccc2)n1 | 4 | 0
Cc1sc(Br)cc1S(=O)(=O)N(C)CCN(C)C | 3 | 3
CCN(CC)S(=O)(=O)c1ccc2c(c1)nc(SCc1ccccc1OC(F)F)n2Cc1ccco1 | 24 | 15
CC(C)(C)S(=O)(=O)c1ccc(NCC(O)COc2ccc(F)cc2)cn1 (stereo not drawn) | 0 | 7
Cc1ccsc1C(=O)NNC(=O)C1CCCC1 | 13 | 9
O=C1NC(=O)C(CC(=O)N2CCN(c3nccc(-c4cccc(C(F)(F)F)c4)n3)CC2)N1 (stereo not drawn) | 22 | 24
CC1CCCC(C)N1CCNc1ccc2c(-c3ccccn3)noc2n1 (stereo not drawn) | -2 | -4
CC(=O)Nc1ccc(S(=O)(=O)N2CCCCC2C)cc1 (stereo not drawn) | 0 | -3
Cn1c(Cl)cnc1C(O)C(F)(F)F (stereo not drawn) | 4 | 2
CCC(C)Nc1nc(OC)nc(Oc2ccc(=O)[nH]n2)n1 (stereo not drawn) | 2 | 41
CN(CCOc1ccccc1)c1ncnc2[nH]ccc12 | -6 | -10
CCC(C)N(Cc1ccccc1OS(=O)(=O)c1ccc(F)cc1)C(=O)C(C)C (stereo not drawn) | 13 | 19
COc1ccc(S(=O)(=O)NCC2CCCO2)cc1N1CCN(S(=O)(=O)c2cccc(C(F)(F)F)c2)CC1 (stereo not drawn) | 4 | 1
COCCCN(Cc1cccn1Cc1ccc(F)cc1)CC(O)C(C)C (stereo not drawn) | -2 | 4
Cc1cc(OCCCn2cnc3ccccc32)ccc1[N+](=O)[O-] | 3 | 3
COC(=O)c1ccc(CSc2nnc(-c3cc(-c4ccccc4)nc4ccccc34)n2CC2CCCO2)c(OC)c1 (stereo not drawn) | -5 | -4
O=C1NC(C(=O)N2CCc3onc(-c4cccc5ccccc45)c3C2)CO1 (stereo not drawn) | -6 | -7
CCn1nc(C)c(CNCc2c(C(=O)N3CCCCCCC3)nc3sccn23)c1C | 6 | 9
Cc1ccc(S(=O)(=O)C(CNC(=O)C2CC2)c2cccs2)cc1 (stereo not drawn) | 2 | -2
Cc1c(C(=O)NCc2cccc([N+](=O)[O-])c2)sc(=O)n1Cc1ccc(Cl)c(Cl)c1 | 3 | 0
CC(=O)NC1Sc2ccccc2N=C1c1ccc(C)cc1 (stereo not drawn) | -18 | -18
N#CC1C(=N)C(C#N)(C#N)C(C2C=CCCC2)C2CCCC=C12 (stereo not drawn) | 10 | 7
Cc1ccc(C)c(C(C)NC(=O)CN2C(=O)CNC2=O)c1 (stereo not drawn) | 8 | 6
CC(C)(C)c1cc(NC(=O)c2ccc(=O)[nH]c2)n(-c2ccccn2)n1 | 10 | 6
COc1ccc2c(-c3cccnc3)cc(SCc3ccc(Cl)c(Cl)c3)nc2c1 | 4 | 3
CC(=O)c1ccc(F)c(-c2cc(C)cc3c2OC(CNC(=O)/C=C/c2ccccn2)C3)c1 (stereo not drawn) | 5 | 4
COc1ccc(-c2noc(C3CCN(C(=O)c4ccc(Cl)nc4)CC3)n2)cc1 | -4 | -1
COCCN(Cc1ccccc1OS(=O)(=O)c1ccc(F)cc1)C(=O)C1CCC1 | 0 | 11
CCOc1ccc(NC(=O)CCSc2nnc(C)s2)cc1 | -1 | 5
CCn1cc(C(=O)NC2CCCN(c3ccc(C)cc3)C2=O)cn1 (stereo not drawn) | -24 | -25
Cc1cccc(CC(=O)Nc2cc(C)nn2-c2ncnc3c2cnn3-c2ccccc2)c1 | 6 | 6
O=C(O)c1nc2nc[nH]c2cc1Br | -4 | 3
CC(=O)N(Cc1ccccc1)Cc1nc2cc(Cl)ccc2o1 | 1 | 0
CCn1nc(-c2ccccc2)c(-c2ccccc2)c(C(=O)O)c1=O | -3 | 24
C=C(C)Cn1c(=O)c2c(nc3n2CCN3c2cc(OC)ccc2OC)n(C)c1=O | 10 | 5
O=C(c1c(F)cccc1F)N1CCN(c2nc3nccc(-c4ccc(C5CCCCC5)cc4)n3n2)CC1 | 6 | 0
CCc1ccc(-c2nn(CC(=O)N3CCc4ccccc43)c(=O)c3nc(C)sc23)cc1 | 2 | -2
O=C(Nc1ccc(Cc2nnc3ccccn23)cc1)C1CCS(=O)(=O)C1 (stereo not drawn) | -6 | -8
C=CC(C1=CC(=O)C(OC)=CC1=O)c1ccc(OC)cc1 (stereo not drawn) | -7 | -13
CC(C)Nc1cc(N2CCC(C3(CCc4ccccc4)NC(=O)NC3=O)CC2)ncn1 (stereo not drawn) | 3 | 2
CC1CN(C)C(=O)N(Cc2ccc(N(C)C)cc2)C1=O (stereo not drawn) | -5 | 65

# (next part)
Molecule | NPYLR7 ag | NPYLR7 ag max-min
CCCN1C(=O)/C(=C\C=C2/C=CC=CN2CC)SC1=Nc1nc2ccccc2s1 | -13 | -16
O=[N+]([O-])c1cc(S(=O)(=O)Nc2cc(Cl)ccc2-n2cncn2)ccc1Cl | 2 | 0
Cn1cc(C(=O)N2CCOCC2)c2[nH]c(=O)n(-c3ccc(Cl)cc3)c(=O)c21 | 4 | 3
Cc1cnc(CCNC(=O)c2ccc(C(F)(F)F)nc2C)s1 | 12 | 7
C=CCN1CCC(NC(=O)NC2CCN(c3ccccc3)C2=O)CC1 (stereo not drawn) | 5 | 2
CCOC(=O)C1=C(O)/C(=C\c2ccc(O)cc2O)SC1=Nc1ccc(F)cc1 | 8 | 8
COc1ccc(C(=O)C2CCCN(C(=O)COc3ccc(Cl)cc3C)C2)cc1OC (stereo not drawn) | 1 | -4

# Record cards (already shown). Order of screens: NPYLR7 ag, NPYLR7 ag max-min
# `Cn1cc(C(=O)N2CCOCC2)c2[nH]c(=O)n(-c3ccc(Cl)cc3)c(=O)c21` reads 4, 3
# `CCOC(=O)C1=C(O)/C(=C\c2ccc(O)cc2O)SC1=Nc1ccc(F)cc1` reads 8, 8
# `C=CCN1CCC(NC(=O)NC2CCN(c3ccccc3)C2=O)CC1` (stereo not drawn) reads 5, 2

# Some of the compounds tested; the hit share may differ from the screen's.
